Mtb betalactam: beta-lactam sensitization of Mtb H37Rv; AID 434955; inhibition, % at 25 µM; 330,000 tested, 0.27% active; M. tuberculosis H37Rv growth with meropenem, percent inhibition; hits of this screen are not shown here;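 active means about 74% or more and at least 40 points above the plate without the antibiotic, then above 30% in a dose series; inconclusive means first-round hits that could not be retested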;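 further: growth measured after seven days incubation then overnight dye step; 0% = bacteria only wells and 100% = bacteria with antibiotic; twin plates without the antibiotic show which effects depend on it; some results filed as inactive read as strong as hits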
YopH PTP inh: YopH (Yersinia) phosphatase inhibition; 140,000 tested, 0.16% active; fluorescence Ex485/Em525; inhibition, %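 (about 10 µM by stock and volumes)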;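 active means inhibition of 50% or more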;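 further: controls were vehicle for no effect and minimum signal wells for full effect; inactives centre near -20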
RecA intein inh: Mtb RecA intein splicing inhibition. P9WHJ3. cell-free RecA intein splicing, fluorescence. inhibition, %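 (about 9 µM by stock and volumes)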. 290,000 tested, 0.75% active. AID 2221; in the data active means inhibition above about 30%; inconclusive means no clear call, values can overlap the other calls;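 further: 0% = vehicle wells and 100% = reference inhibitor control wells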
Target sequence (P9WHJ3 whole entry, looked up): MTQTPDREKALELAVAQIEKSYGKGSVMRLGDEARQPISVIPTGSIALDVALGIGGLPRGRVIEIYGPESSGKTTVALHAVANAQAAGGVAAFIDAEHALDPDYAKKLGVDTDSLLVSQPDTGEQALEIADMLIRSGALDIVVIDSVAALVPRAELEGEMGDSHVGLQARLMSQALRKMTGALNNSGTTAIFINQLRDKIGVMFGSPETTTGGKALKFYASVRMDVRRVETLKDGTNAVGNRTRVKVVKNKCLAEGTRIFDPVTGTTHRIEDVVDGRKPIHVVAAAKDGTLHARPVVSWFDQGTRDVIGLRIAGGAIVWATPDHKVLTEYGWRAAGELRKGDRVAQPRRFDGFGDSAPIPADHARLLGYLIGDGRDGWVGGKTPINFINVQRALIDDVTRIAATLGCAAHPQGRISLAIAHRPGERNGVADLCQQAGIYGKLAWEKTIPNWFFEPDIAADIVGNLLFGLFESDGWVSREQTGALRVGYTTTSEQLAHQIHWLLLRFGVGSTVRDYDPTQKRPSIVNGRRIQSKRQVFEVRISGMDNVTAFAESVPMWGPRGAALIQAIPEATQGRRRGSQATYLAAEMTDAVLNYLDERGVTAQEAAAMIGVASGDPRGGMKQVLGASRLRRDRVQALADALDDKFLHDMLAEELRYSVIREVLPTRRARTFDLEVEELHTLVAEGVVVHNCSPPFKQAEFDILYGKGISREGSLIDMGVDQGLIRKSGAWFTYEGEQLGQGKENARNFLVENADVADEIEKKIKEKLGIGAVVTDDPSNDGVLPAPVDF
Arbovirus inh: arbovirus infection inhibition. arbovirus infection cell-based antiviral screen. inhibition, % at 10 µM. 200,000 tested, 0.37% active. AID 1251;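 active means inhibition from about 30%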;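 further: bluetongue infection of BSR cells; cell survival read as ATP light after 72 h; 0% = infected wells without compound and 100% = uninfected wells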
Mtb H37Rv: M. tuberculosis H37Rv growth inhibitors, H37Rv strain (AID 1626); M. tuberculosis H37Rv growth inhibition; higher % means a stronger effect; one-dose inhibition, % at 10 µM; IC50 in µM for titrated hits; 220,000 tested, 0.95% active;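 active means confirmed in a dose series; inconclusive means inhibition above 80% but not taken into the dose series; inactive means below 80% or under 30% at every dose of the series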;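 further: bacteria incubated seven days before Alamar blue readout; 0% = bacteria only wells and 100% = bacteria with antibiotic wells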
Arbovirus inh repeat: further read-out of Arbovirus inh, marked with its call; inhibition, %; measured here: 10K subset replicate screen; many hits read low in the repeat;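 first of two repeat runs on a subset; 0% = infected and 100% = uninfected wells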
* marks the source's active call; other numbers are inactive results; ? = inconclusive; . = no result given. This is a subset. The share of hits here may be higher or lower than overall.

SMILES	Mtb betalactam	YopH PTP inh	RecA intein inh	Arbovirus inh	Mtb H37Rv	others
COc1ccc(/C=C/C(=O)Oc2cc(C)[nH]c(=O)c2[N+](=O)[O-])cc1OC	0	.	-5.2	2	-11%
O=C(NCCc1ccccc1)c1ccc2c(c1)OCCO2	5	.	-0.8	.	.
COCCn1c(COc2cccc(OC)c2)nnc1SCC(=O)N1CCOCC1	?	-19	1.7	12	-14%
CCOC(=O)c1c(C)[nH]c(C(=O)COC(=O)COc2ccccc2C)c1C	13	-26	.	5	-1%
Cc1ccc(/C=C/C(=O)O)cc1S(=O)(=O)N1CCC(Cc2ccccc2)CC1	1	.	4.7	.	-17%
Cc1cc(C)cc(NC(=O)CCOc2ccccc2)c1	-11	.	0.1	.	.
COC(=O)CCC(=O)OC1(C)C(=O)C=C2C=C(C3CC3)N(c3ccccc3)C=C2C1=O (stereo unspecified)	0	.	0.4	.	-12%
Cc1ccc(C(=O)N/C(=C/c2ccc(Cl)cc2)C(=O)NCC2CCCO2)cc1 (stereo unspecified)	5	-26	-3.6	-7	13%
CC(c1ccccc1)c1nnc(N)s1 (stereo unspecified)	2	.	-0.8	4	-3%
Cc1onc(-c2c(F)cccc2Cl)c1C(=O)Nc1ccccc1N1CCOCC1	1	.	4.4	.	-1%
CC1CCCN(C(=O)COC(=O)c2cc([N+](=O)[O-])ccc2N2CCOCC2)C1 (stereo unspecified)	-4	.	0.6	.	.
COc1ccc(CNc2ncnc3c2[nH]c2ccccc23)cc1	5	.	5.8	.	2%
O=C(Nc1cc(Cl)cc(Cl)c1)c1ccc(Cn2c(=O)[nH]c3ccsc3c2=O)cc1	-6	-40	-1.2	0	14%
CN1CCN(S(=O)(=O)c2cc(Cl)c(Cl)cc2Cl)CC1	4	.	-2.0	.	.
COC(=O)c1ccc(NC(=O)c2cnc3scc(C)n3c2=O)cc1	4	.	0.7	-2	.	Arbovirus inh repeat=3
Cc1cc(C)cc(OCCNC(=O)C2CCN(S(=O)(=O)c3ccccc3)CC2)c1	?	.	1.7	.	.
COc1ccc(-n2ncc3c(N(C)C4CCCCC4)ncnc32)cc1	90	.	4.2	-7	.	Arbovirus inh repeat=-6
O=C(Cc1ccc(Cl)cc1)Nc1ccccc1C(=O)N1CCCCC1	-13	.	2.3	.	.
CCc1nc(N2CCN(C(=O)c3ccccc3)CC2)c(C#N)c2c1COC(C)(C)C2	12	-21	.	-21	-4%
CCOC(=O)N1CCN(C(=S)NC2CCCC2)CC1	-3	.	1.3	0	5%
CS(=O)(=O)N(CC(=O)N1CCOCC1)Cc1ccc(Cl)cc1	13	0	-3.8	10	-7%
CCN(CC)S(=O)(=O)c1cccc(NC(=O)CSc2nc3ccccc3[nH]2)c1	6	.	-1.1	2	6%
CC(C)(C)c1ccc(NC(=O)Cn2cnc3cc([N+](=O)[O-])ccc3c2=O)cc1	3	.	1.2	5	8%
COc1cc2c(cc1OC)CN(C(=O)Cc1ccc(OC)c(S(=O)(=O)N3CCOCC3)c1)CC2	4	-8	-2.4	8	-5%
COc1ccc(NC(=O)N/C=C/c2ccco2)cc1	2	.	-2.0	-1	9%

(list continues)
SMILES	Mtb betalactam	YopH PTP inh	RecA intein inh	Arbovirus inh	Mtb H37Rv	others
CC(C)(C)OC(=O)N1CCC(c2c(C(=O)N3CCN(C4CCCCC4)CC3)cnn2-c2ccc(F)cc2)CC1	-2	.	-1.3	.	.
CNC(=O)CS(=O)(=O)CC(=O)Nc1cc(OC(C)C)c(Cl)cc1Cl	-8	.	.	5	0%
COc1ccccc1OC(C)c1nnc(SCC(=O)Nc2c(C)n(C)n(-c3ccccc3)c2=O)n1-c1ccccc1 (stereo unspecified)	-1	-18	0.1	10	-24%
CC(=O)N1CCN(CCN=Cc2c(O)n(-c3ccc(C)cc3)c(=S)[nH]c2=O)CC1	-5	.	0.7	.	.
Cc1ccc(-c2c(C(=O)O)c(C(=O)O)c3n2CCC3)cc1	-3	.	-3.9	5	.
COC(=O)C(C)C1Sc2ccccc2NC1=O (stereo unspecified)	-6	-33	1.9	-1	9%
CN1CCc2c(sc(NC(=O)c3cc(Cl)sc3Cl)c2C(N)=O)C1	-11	.	-8.5	.	.
CCOC(=O)N1CCN(C(=O)c2oc3ccc(S(=O)(=O)N4CC(C)CC(C)C4)cc3c2C)CC1 (stereo unspecified)	38	37	3.2	-15	-2%	Arbovirus inh repeat=1
CCN(CC)c1ccc(S(=O)(=O)N2CCOCC2)cc1NC(=O)COC(=O)c1cccnc1SC	-8	.	-1.7	.	.
CCOC(=O)[C@@H]1[C@H]2COc3ccc(Br)cc3[C@@H]2N2C(=O)N(c3cccc(C)c3)C(=O)[C@]12C	-3	.	11	.	.
Cn1nccc1C(=O)N1CCCC(C(=O)c2ccc(C(F)(F)F)cc2)C1 (stereo unspecified)	2	.	-0.5	.	.
CCN1CCN(c2ccc(S(=O)(=O)N3CCOCC3)cc2NC(=O)c2ccccc2OC(F)F)CC1	-9	.	12	.	.
COc1cc(NC(=O)c2cc(-c3ccco3)on2)cc(OC)c1OC	7	.	-3.2	.	.
Cn1c(=O)c2c(nc(SCCCC#N)n2Cc2ccccc2F)n(C)c1=O	?	-28	0.5	3	6%
CCOc1ccc(N(C)S(=O)(=O)c2cc(-c3cc(C)no3)ccc2CC)cc1	2	.	9.6	.	.
O=C(NCCc1ccccn1)C(F)(F)C(F)(F)C(F)(F)C(F)(F)C(F)(F)C(F)F	-7	-7	-2.4	6	2%
COC(=O)CC1C(=O)NCCN1C(=O)CSc1nc2ccccc2c(=O)n1CC(C)C (stereo unspecified)	-7	.	2.2	-4	-10%
COc1cccc(C2=CC(c3ccccc3)n3nnnc3N2)c1 (stereo unspecified)	16	-45	-10	3	.
O=C(NCc1ccccc1)C1=C[C@@H](C2CC2)C[C@@H](OCCCCO)O1	-8	.	1.6	-2	.
Cc1ccsc1/C=N/N=C/c1sccc1C	-6	.	-2.2	.	.
CC(C)OP(=O)(c1ccc(N(C)C)cc1)C(O)c1c(Cl)cccc1Cl (stereo unspecified)	-2	-10	-0.5	5	-2%
O=S(=O)(c1cccs1)n1cnc2ccccc21	-10	-64	1.0	-6	-12%
Cc1cccc(N2C(=O)/C(=C/N3CCN(C(=O)c4ccco4)CC3)C(=O)NC2=S)c1	-16	-22	1.1	4	-7%
Cc1cccc(CNC(=O)c2ccccc2NC(=O)C2=CSCCO2)c1	0	.	-8.6	.	.
CC(C)c1nnc(NC(=O)CCC(=O)NC2CCCCC2)s1	-3	.	0.4	.	-11%

Reprinted from the entries so far for reference:
SMILES	Mtb betalactam	YopH PTP inh	RecA intein inh	Arbovirus inh	Mtb H37Rv	others
CC(C)(C)OC(=O)N1CCC(c2c(C(=O)N3CCN(C4CCCCC4)CC3)cnn2-c2ccc(F)cc2)CC1	-2	.	-1.3	.	.
CNC(=O)CS(=O)(=O)CC(=O)Nc1cc(OC(C)C)c(Cl)cc1Cl	-8	.	.	5	0%
COc1ccccc1OC(C)c1nnc(SCC(=O)Nc2c(C)n(C)n(-c3ccccc3)c2=O)n1-c1ccccc1 (stereo unspecified)	-1	-18	0.1	10	-24%
CC(=O)N1CCN(CCN=Cc2c(O)n(-c3ccc(C)cc3)c(=S)[nH]c2=O)CC1	-5	.	0.7	.	.
Cc1ccc(-c2c(C(=O)O)c(C(=O)O)c3n2CCC3)cc1	-3	.	-3.9	5	.
COC(=O)C(C)C1Sc2ccccc2NC1=O (stereo unspecified)	-6	-33	1.9	-1	9%
CN1CCc2c(sc(NC(=O)c3cc(Cl)sc3Cl)c2C(N)=O)C1	-11	.	-8.5	.	.
CCOC(=O)N1CCN(C(=O)c2oc3ccc(S(=O)(=O)N4CC(C)CC(C)C4)cc3c2C)CC1 (stereo unspecified)	38	37	3.2	-15	-2%	Arbovirus inh repeat=1
CCN(CC)c1ccc(S(=O)(=O)N2CCOCC2)cc1NC(=O)COC(=O)c1cccnc1SC	-8	.	-1.7	.	.
CCOC(=O)[C@@H]1[C@H]2COc3ccc(Br)cc3[C@@H]2N2C(=O)N(c3cccc(C)c3)C(=O)[C@]12C	-3	.	11	.	.
Cn1nccc1C(=O)N1CCCC(C(=O)c2ccc(C(F)(F)F)cc2)C1 (stereo unspecified)	2	.	-0.5	.	.
CCN1CCN(c2ccc(S(=O)(=O)N3CCOCC3)cc2NC(=O)c2ccccc2OC(F)F)CC1	-9	.	12	.	.

Continuation.
SMILES	Mtb betalactam	YopH PTP inh	RecA intein inh	Arbovirus inh	Mtb H37Rv	others
Cc1ccc(NC(=O)NC(=O)CSc2nnnn2C)c(C)c1	-4	0	0.6	2	-1%
c1ccc2[nH]c3cc4ncnc4cc3nc2c1	79	-6	60*	-20	53%
Cc1ccc(-c2nnn(CC(=O)N(Cc3ccccc3F)C(C(=O)NC3CCCC3)c3ccncc3)n2)o1 (stereo unspecified)	-2	-20	2.0	-4	10%
CCc1cc(C(=O)N2CCCC(C(=O)c3cccc(OC(C)C)c3)C2)n(C)n1 (stereo unspecified)	-1	.	0.7	11	-10%
O=C(c1ccc(-c2ccccc2)cc1)C1CCCN(C(=O)c2ccncc2)C1 (stereo unspecified)	-1	.	2.7	0	-1%
Cn1c(=O)c(N=O)c(N)n(Cc2ccccc2)c1=S	0	.	11	.	-7%
O=[N+]([O-])c1ccc(C23CC4CC(CC(O)(C4)C2)C3)cc1	-7	.	-2.2	.	.
Cc1ccc(S(=O)(=O)N(C(=O)c2ccncc2)c2ccc(OC(=O)c3ccncc3)cc2)c(C)c1	6	-18	5.7	-3	0%
O=C(CC(c1ccccc1)c1ccccc1)Nc1ccc(Cl)cn1	2	12	4.3	-19	15%
Cc1ccc2nc3n(c2c1)CCCN3	-11	.	1.8	.	.
Cc1ccc(N(CC(=O)N=Nc2c(O)[nH]c3ccccc23)S(C)(=O)=O)c(C)c1	-11	.	0.8	-4	3%
COc1ccc(NC(=O)CN(C)C(=O)c2cccc(NS(=O)(=O)c3ccc(Br)cc3)c2)cc1	-4	.	2.1	.	.
c1ccc2c(c1)Cn1nc(Cc3nc4c(s3)CCCC4)nc1-2	.	4	9.4	-8	-8%
CCOC(=O)Nc1ccc2c(c1)N(C(=O)CCN(C)C)c1ccccc1CC2	1	.	-1.3	.	.
Cc1cc(C)cc(OCC(O)CN2CCN(C(=O)c3ccco3)CC2)c1 (stereo unspecified)	7	.	0.4	.	.
CC(C)Cc1nnc(NS(=O)(=O)Cc2ccccc2)s1	-6	-19	1.3	1	4%
CCc1ccccc1NC(=O)CCC(=O)N1CCSc2ccccc21	7	.	2.7	.	.
O=C(CSc1nnc2scc(-c3ccc(Cl)cc3)n12)NCc1ccco1	3	-36	1.8	-1	8%
CCCCn1c(N)c(N(CC(C)C)C(=O)c2ccc(N(C)S(=O)(=O)c3ccc(C)cc3)cc2)c(=O)[nH]c1=O	-1	.	-2.3	.	.
CC(C)CC(=O)N1CC(=O)Nc2ccc(F)cc2C1c1ccccc1 (stereo unspecified)	9	.	-1.3	.	.
CCOC(=O)COc1cccc2c(=O)n(CC(=O)NCCc3ccccc3)ccc12	-4	-35	0.1	-3	5%
CCOC(=O)C1CCN(c2cc(C)nc3ccc(OC)cc23)CC1	6	.	0.3	13	-8%
O=C(Cn1c(C(F)(F)F)nc2ccccc21)c1ccc(Cl)cc1	?	-17	-1.0	-6	-11%
CC(=O)NNc1ncnc2c1cnn2-c1ccc(C)c(C)c1	-10	.	-0.4	10	1%
O=C1c2ccccc2NC(c2ccc(O)cc2)N1Cc1ccco1 (stereo unspecified)	-5	0	-0.7	7	5%

The list continues:
SMILES	Mtb betalactam	YopH PTP inh	RecA intein inh	Arbovirus inh	Mtb H37Rv	others
O=C(c1sc2ccccc2c1Cl)N(Cc1ccccc1)C1CCS(=O)(=O)C1 (stereo unspecified)	7	-9	-1.4	-6	2%
C=C1CCC2[C@](C)(CO)[C@H](O)CC[C@@]2(C)[C@@H]1C/C=C1\C(=O)OC[C@H]1O (stereo partly specified)	47	.	4.2	.	.
COc1ccc(C(=O)Nc2ccc(NC(=O)c3ccccc3)cc2)cc1S(=O)(=O)N1CCOCC1	-10	.	0.2	.	.
CCOC(=O)C1=NOC2C3CC(C12)C1C(=O)N(CCc2ccc(OC)c(OC)c2)C(=O)C31 (stereo unspecified)	-8	.	0.4	.	.
O=C(O)c1ccccc1N=Nc1ccc(O)cc1	0	.	-1.8	.	-10%
O=C(Cn1cc(SCc2ccc(F)cc2)c2ccccc21)N1CCOCC1	3	-31	1.1	5	6%
CC(C)CC(=O)NC(=S)Nc1ccc(N2CCN(C(=O)c3cccs3)CC2)cc1	.	.	-4.2	.	60%
Cc1cc(=O)oc2c3c(cc(OCC(=O)NCc4ccccn4)c12)OC(C)(C)CC3	-1	.	-0.6	.	.
CN(C)Cc1nc2c(c(=O)[nH]1)C(C)(C)Cc1ccccc1-2	98	7	2.2	-5	?
